Vaccinia stage – Vaccinia orthopox stage-specific inhibition; Vaccinia-infected cells, mCherry/Venus stage reporter fluorescence; active compounds read low; some inactives read as strong as hits; activity change (mCherry), % (concentration not given with the values); hit rate 0.01% among 89,000;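 active = mCherry past -33% and 40 or more points under the early reporter, replicates agreeing; inconclusive = past -33% without that gap or agreement; tested in A549 cells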;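 also: scaled between vehicle wells and reference inhibitor wells; 23 nL library stock went into each well; one replicate is shown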
Vaccinia stage Venus – recorded beside Vaccinia stage, whose call it bears; activity change (Venus), %; measured here: Venus reporter, other viral stage;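 negative = less Venus signal; first of two replicates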
Active calls of the source: *; ? = inconclusive; nt = no result given. The list is partial, so the mix of outcomes need not match the whole.

SMILES	Vaccinia stage	Vaccinia stage Venus
C[C@@H]1CCCCO[C@@H](CN(C)C(=O)CCC(F)(F)F)[C@H](C)CN([C@@H](C)CO)C(=O)c2cc(NC(=O)NC3CCCCC3)ccc2O1	-14.2	-13.9
C[C@H](CO)N1C[C@H](C)[C@@H](CN(C)S(=O)(=O)c2ccc(F)cc2)Oc2ccc(NC(=O)Cc3cn(C)c4ccccc34)cc2C1=O	5.5	-1.8
CN(C)C(=O)C[C@H]1C=C[C@H](NC(=O)C2CC2)[C@H](CO)O1	4.9	2.0
Cc1cccc(S(=O)(=O)NC[C@H]2CC[C@@H]3NC[C@@H]3O2)c1	10.4	7.3
COc1cccc(C(=O)Nc2ccc3c(c2)OC[C@@H](C)N(C)C[C@@H](C)[C@@H](OC)CN(C)C3=O)c1	-1.1	3.4
COc1ccc2c3c([nH]c2c1)[C@H](CO)N(S(C)(=O)=O)CC31CN(C(=O)c2ccncc2)C1	22.9	10.7
CC(=O)N1CCCCN2[C@H](C1)[C@H](c1ccc(C#Cc3ccccc3F)cc1)[C@@H]2CO	?	nt
COc1cccc(-c2cnc3c(c2)C(=O)N([C@H](C)CO)C[C@H](C)[C@H](CN(C)Cc2ccc(C(=O)O)cc2)O3)c1	8.7	7.3
CCNC(=O)C[C@@H]1CC[C@H]2[C@H](COc3ccc(NC(=O)c4ccc5c(c4)OCO5)cc3C(=O)N2C)O1	8.5	13.4
C[C@H]1CN([C@@H](C)CO)C(=O)c2cc(-c3ccc(F)cc3)cnc2O[C@@H]1CN(C)C(=O)Cc1ccccn1	-10.7	-15.7
Cc1ccccc1S(=O)(=O)NCC[C@@H]1CC[C@@H](NC(=O)Nc2cccc(Cl)c2)[C@@H](CO)O1	-7.7	-4.4
C[C@@H]1CN([C@@H](C)CO)S(=O)(=O)c2ccc(Br)cc2O[C@H]1CN(C)C(=O)c1ccccc1	17.2	3.9
Cc1noc(C)c1NC(=O)Nc1ccc2c(c1)C(=O)N([C@H](C)CO)C[C@H](C)[C@@H](CN(C)C(=O)c1ccccc1)OCCCC[C@H](C)O2	20.1	13.2
CCCC(O)C#Cc1cnc2c(c1)C(=O)N([C@H](C)CO)C[C@H](C)[C@H](CN(C)S(=O)(=O)c1cccc(OC)c1)O2 (some centres undefined)	-0.2	-10.2
CCCNC(=O)C[C@H]1CC[C@@H]2[C@@H](COc3ccc(NS(=O)(=O)c4ccccc4C)cc3C(=O)N2C)O1	1.0	6.2
CCC(=O)N[C@@H]1CC[C@@H](CC(=O)NCC2CCCCC2)O[C@@H]1CO	3.8	7.5
CCCN1[C@@H]2c3ccc(-c4ccccc4OC)c(=O)n3C[C@@H]2[C@@H](CO)[C@@H]1C(=O)N1CCCCC1	-10.8	0.7
CN(C)C(=O)C[C@H]1CC[C@H]2[C@@H](COc3ccc(NC(=O)C4CCOCC4)cc3C(=O)N2C)O1	13.7	9.5
CC(C)NC(=O)N(C)C[C@H]1OCCCC[C@@H](C)Oc2ccc(NC(=O)c3ccncc3)cc2C(=O)N([C@@H](C)CO)C[C@H]1C	4.8	11.6
Cc1noc(C)c1S(=O)(=O)Nc1ccc2c(c1)CC(=O)N([C@@H](C)CO)C[C@H](C)[C@@H](CN(C)Cc1ccc3c(c1)OCO3)O2	-6.1	-6.7
C[C@H](CO)N1C[C@H](C)[C@@H](CN(C)Cc2ccc(C(=O)O)cc2)Oc2ccc(N(C)C)cc2C1=O	6.5	1.7
CN(C)C(=O)c1cccc(-c2cccc(-c3nc(C(=O)NCc4ccccc4)cc4c3[C@@H](CCO)N([S@](=O)C(C)(C)C)C4)c2)c1	-20.5	1.8
O=C(NCC[C@H]1CC[C@@H](NC(=O)C2CC2)[C@H](CO)O1)Nc1ccc(Cl)cc1	25.9	10.3
CCCN1[C@@H]2c3ccc(C4=CCCCC4)c(=O)n3C[C@@H]2[C@@H](CO)[C@@H]1C(=O)N(C)C	1.0	-1.4
C[C@H](CO)N1C[C@H](C)[C@H](CN(C)Cc2ccc(C(=O)O)cc2)Oc2ncc(-c3ccc(C(=O)N(C)C)cc3)cc2C1=O	11.0	-2.1
COc1ccc(S(=O)(=O)N(C)C[C@@H]2Oc3ccc(NS(=O)(=O)c4ccc(F)cc4)cc3CC(=O)N([C@H](C)CO)C[C@@H]2C)cc1	-1.3	4.2
Cc1noc(C)c1S(=O)(=O)N(C)C[C@H]1OCCCC[C@@H](C)Oc2ccc(N(C)C)cc2C(=O)N([C@H](C)CO)C[C@@H]1C	2.3	3.3
Cc1cc(C(=O)Nc2cccc3c2O[C@@H](CN(C)Cc2ccccc2)[C@H](C)CN([C@H](C)CO)C3=O)n(C)n1	-8.1	-5.8
O=C(Nc1ccccc1)N1CC(=O)N2[C@H](CO)[C@@H](c3ccc(C#CC4CC4)cc3)[C@@H]2C1	-29.0	-14.8
CN1CCCCN2[C@H](C1)[C@H](c1ccc(-c3ccccc3)cc1)[C@@H]2CO	-13.6	-2.8

Exported as labelled records: part of the list above
mol: Cc1cc(C(=O)Nc2cccc3c2O[C@@H](CN(C)Cc2ccccc2)[C@H](C)CN([C@H](C)CO)C3=O)n(C)n1
  Vaccinia stage: -8.1
  Vaccinia stage Venus: -5.8
mol: O=C(Nc1ccccc1)N1CC(=O)N2[C@H](CO)[C@@H](c3ccc(C#CC4CC4)cc3)[C@@H]2C1
  Vaccinia stage: -29.0
  Vaccinia stage Venus: -14.8
mol: CN1CCCCN2[C@H](C1)[C@H](c1ccc(-c3ccccc3)cc1)[C@@H]2CO
  Vaccinia stage: -13.6
  Vaccinia stage Venus: -2.8

Later entries
SMILES	Vaccinia stage	Vaccinia stage Venus
COCC(=O)N(C)C[C@@H]1Oc2ncc(-c3ccccc3F)cc2C(=O)N([C@H](C)CO)C[C@H]1C	8.5	9.1
CN1C(=O)c2cc(NC(=O)C3CCOCC3)ccc2OC[C@H]2O[C@@H](CC(=O)NCc3ccccc3F)CC[C@H]21	8.6	13.5
COCC(=O)N1CCC2(CC1)CN(S(C)(=O)=O)[C@@H](CO)c1[nH]c3cc(OC)ccc3c12	13.4	-0.7
C[C@H]1CN([C@@H](C)CO)C(=O)c2cc(/C=C/c3ccccc3)cnc2O[C@@H]1CN(C)C(=O)c1ccc2c(c1)OCO2	?	nt
COc1ccccc1NC(=O)N1CC(=O)N2[C@H](CO)[C@@H](c3ccc(C#CC(C)C)cc3)[C@@H]2C1	-21.2	-12.4
C[C@@H]1CN([C@H](C)CO)C(=O)c2cc(NS(=O)(=O)c3cccs3)ccc2O[C@H]1CN(C)S(C)(=O)=O	23.4	14.0
O=C(NCC[C@H]1CC[C@H](NC(=O)c2ccncc2)[C@H](CO)O1)Nc1ccc(Cl)cc1	17.8	14.4
COCC(=O)Nc1ccc2c(c1)[C@H]1C[C@@H](CC(=O)NCc3ccc(-c4ccccc4)cc3)O[C@@H](CO)[C@H]1O2	0.5	-4.8
CO[C@@H]1CN(C)C(=O)c2cc(NC(=O)Nc3cc(F)ccc3F)ccc2OC[C@H](C)N(C(=O)c2ccccn2)C[C@@H]1C	-1.6	-5.6
C[C@@H]1CCCCO[C@H](CN(C)C(=O)Nc2ccc(C(F)(F)F)cc2)[C@@H](C)CN([C@@H](C)CO)C(=O)c2cc(NS(=O)(=O)c3ccccc3)ccc2O1	-26.0	-19.3
CC(C)NC(=O)N(C)C[C@H]1Oc2c(NC(=O)Nc3ccccc3)cccc2C(=O)N([C@H](C)CO)C[C@@H]1C	-6.0	2.1
C[C@H](CO)N1C[C@H](C)[C@@H](CN(C)Cc2ccncc2)Oc2ccc(NC(=O)Nc3ccc4c(c3)OCO4)cc2C1=O	5.3	7.2
CC(=O)N1[C@@H](CO)[C@@H](c2ccc(C3=CCCC3)cc2)C12CN(C(=O)C1CC1)C2	-0.6	1.7
C[C@H](O)C#Cc1ccc2c(c1)O[C@H](CN(C)Cc1ccncc1)[C@H](C)CN([C@H](C)CO)S2(=O)=O	4.8	3.3
CCCC(=O)Nc1ccc2c(c1)C(=O)N(C)C[C@@H](OC)[C@H](C)CN(Cc1ccccc1)[C@@H](C)CO2	-1.0	-6.4
CC(C)NC(=O)N(C)C[C@@H]1Oc2ncc(C#Cc3ccc(C(F)(F)F)cc3)cc2C(=O)N([C@H](C)CO)C[C@@H]1C	-12.5	-3.9
N#C[C@@H]1[C@H](c2ccccc2C2=CCCC2)[C@H](CO)N1C(=O)NC1CCCC1	5.4	7.6
CCCNC(=O)N(C)C[C@@H]1Oc2ncc(C#CC3CCCCC3)cc2C(=O)N([C@@H](C)CO)C[C@H]1C	-10.3	-7.3
C[C@H](NC(=O)[C@@H]1[C@@H](CO)[C@@H]2Cn3c(ccc(-c4ccccc4)c3=O)[C@@H]2N1C)c1ccccc1	10.0	8.5
C[C@@H]1CCCCO[C@H](CN(C)CC2CC2)[C@@H](C)CN([C@@H](C)CO)C(=O)c2cc(NS(=O)(=O)c3ccccc3)ccc2O1	4.8	-9.9
O=C(NCC[C@H]1CC[C@@H](NC(=O)C2CC2)[C@H](CO)O1)c1cnccn1	4.4	0.9
C[C@H](CO)N1C[C@H](C)[C@H](CN(C)Cc2ccc3c(c2)OCO3)Oc2ccc(N(C)C)cc2C1=O	16.3	12.0
Cc1ccc(S(=O)(=O)Nc2ccc3c(c2)C(=O)N([C@@H](C)CO)C[C@H](C)[C@H](CN(C)C(=O)Nc2ccc(F)cc2)O3)cc1	7.0	-2.0
C[C@H]1CN([C@@H](C)CO)C(=O)CCCn2cc(nn2)CO[C@@H]1CN(C)S(=O)(=O)c1ccc(C#N)cc1	18.7	15.0
COc1ccc(S(=O)(=O)N(C)C[C@H]2OCCCC[C@H](C)Oc3ccc(NC(=O)Cc4ccccc4)cc3C(=O)N([C@H](C)CO)C[C@H]2C)cc1	3.4	1.4
CC(C)NC(=O)NCC[C@H]1CC[C@H](NS(=O)(=O)c2ccc(-c3ccccc3)cc2)[C@H](CO)O1	-14.0	-7.0
C[C@@H]1CN([C@H](C)CO)C(=O)c2cccc(NS(=O)(=O)c3ccc(F)cc3)c2O[C@@H]1CN(C)S(=O)(=O)c1ccc(F)cc1	15.3	9.4
C[C@@H](NC(=O)C[C@H]1CC[C@@H]2[C@H](COC[C@@H](O)CN2Cc2ccc(C(F)(F)F)cc2)O1)c1ccccc1	-17.7	-19.6
C[C@H](CO)N1C[C@H](C)[C@H](CN(C)C(=O)Nc2ccc3c(c2)OCO3)Oc2ncc(-c3cccc(C(F)(F)F)c3)cc2C1=O	?	nt
CO[C@@H]1CN(C)C(=O)c2ccc(NC(=O)c3cnccn3)cc2OC[C@H](C)N(CC2CC2)C[C@H]1C	-4.2	11.7

Other records follow:
SMILES	Vaccinia stage	Vaccinia stage Venus
CCCN1C[C@@H](C)[C@@H](OC)CN(C)C(=O)c2ccc(NC(=O)COC)cc2OC[C@@H]1C	7.4	8.2
C=CCN1C(=O)[C@@]2(O[C@@H](CCn3cc(CCO)nn3)[C@H]([Si](C)(C)c3ccc(OC)cc3)[C@H]2C)c2cc(N3CCOC3=O)ccc21	-32.3	-16.8
O=C1CN(S(=O)(=O)Cc2ccccc2)C[C@H]2[C@H](c3ccc(C#Cc4ccccc4)cc3)[C@H](CO)N12	?	nt
O=C1[C@H](Cc2ccccc2)CCn2cc(nn2)COCC2CCCN12 (some centres undefined)	9.3	9.2
CC(=O)N(C)C[C@@H]1[C@H](c2ccc(-c3cccnc3)cc2)[C@H](CO)N1C(=O)C1CC1	10.8	8.0
Cc1noc(C)c1NC(=O)N(C)C[C@@H]1Oc2ccc(NC(=O)NC(C)C)cc2CC(=O)N([C@@H](C)CO)C[C@H]1C	10.4	0.9
COc1ccc2c3c(n(C)c2c1)[C@@H](CO)N(C(=O)c1ccc(F)cc1)CC31CN(C(=O)Nc2ccc(F)cc2)C1	-20.3	-20.6
C[C@@H]1CN([C@H](C)CO)C(=O)c2cccc(N(C)C)c2O[C@@H]1CN(C)Cc1ccccc1	-4.8	0.0
O=C(C[C@H]1C=C[C@H](NC(=O)Nc2cc(F)ccc2F)[C@H](CO)O1)NCCCN1CCOCC1	13.3	10.9
CC(C)C#Cc1ccc2c(c1)O[C@H](CN(C)C(=O)c1ccccc1)[C@H](C)CN([C@H](C)CO)S2(=O)=O	-34.9	-33.9
C[C@@H]1CN([C@@H](C)CO)C(=O)c2cc(C#CC3CC3)cnc2O[C@H]1CN(C)S(=O)(=O)c1cccc(F)c1	-11.5	-13.0
N#Cc1cccc(-c2ccc(C3[C@H]4CNC[C@@H]3N4Cc3ccc4c(c3)OCO4)cc2)c1 (some centres undefined)	?	1.4
CCN1[C@@H]2Cn3c(ccc(C4=CCCCC4)c3=O)[C@H]1[C@@H](C(=O)NC1Cc3ccccc3C1)[C@@H]2CO	-15.1	-8.2
O=C(NCc1cccc(F)c1)[C@@H]1[C@@H](CO)[C@@H]2Cn3c(cccc3=O)[C@H]1N2	4.8	5.4
CCC(=O)N(C)C[C@H]1Oc2cc(C#Cc3ccccn3)ccc2S(=O)(=O)N([C@H](C)CO)C[C@@H]1C	-1.0	-1.9
COc1ccc2c3c(n(C)c2c1)[C@@H](CO)N(C(=O)NC(C)C)CC31CCN(CC2CCCC2)CC1	-13.3	-12.5
CCN1[C@@H]2Cn3c(ccc(C4=CCCC4)c3=O)[C@H]1[C@@H](C(=O)NC1CCCC1)[C@@H]2CO	12.8	-1.0
O=C(Nc1ccc2c(c1)[C@H]1C[C@H](CC(=O)N3CCCCC3)O[C@H](CO)[C@H]1O2)c1ccc2c(c1)OCO2	19.3	13.7
C[C@@H]1CCCCO[C@H](CN(C)S(=O)(=O)c2ccccc2)[C@H](C)CN([C@@H](C)CO)C(=O)c2cc(NS(=O)(=O)c3cn(C)cn3)ccc2O1	6.3	-1.1
C[C@H]1CN([C@@H](C)CO)C(=O)Cc2cc(NC(=O)NC3CCCCC3)ccc2O[C@@H]1CN(C)Cc1ccc(-c2ccccc2)cc1	-34.8	-16.3

Assay outcomes: PubChem, Broad Institute
